Yeast UUG start – alters start codon recognition fidelity in yeast. S. cerevisiae UUG-firefly luciferase reporter, luminescence/redox ratio. activity score, % at 18.7 µM. hit rate 0.13% among 350,000. AID 602363;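 active = replicate mean at a twofold rise or more, about +100% in these data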;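 also: firefly luciferase made from a UUG start codon reports start codon fidelity; reporter light over untreated wells divided by growth signal over untreated wells; some hits fall short of that in this replicate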
Env fusion inh – HIV envelope-mediated fusion inhibition; HeLa-JRFL Env/CEM21 cell fusion, luciferase; inhibition, % at 12.3 µM; hit rate 1.1% among 360,000; AID 651610;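 active = mean replicate inhibition score of at least 50 and every replicate individually at or above 50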;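 also: 0% = plate neutral controls and 100% = maraviroc near 300 nM; one replicate is shown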
* = called active by the depositor; [ ] = remark or other dose. These rows are one share of the data; rates above refer to the full screens.

Start of the data: the first 6 entries, ahead of the listing:
Yeast UUG start,Env fusion inh,smiles
-22,17[16.7 µM],C[C@H]1CN([C@@H](C)CO)C(=O)c2cc(-c3cccc(F)c3)cnc2O[C@@H]1CN(C)Cc1ccncc1
52,49[16.7 µM],CC(=O)N(C)C[C@@H]1Oc2cc(C#CC3CCCCC3)ccc2S(=O)(=O)N([C@@H](C)CO)C[C@@H]1C
3,10[16.7 µM],CNC[C@H]1Oc2c(NC(=O)NC3CCCCC3)cccc2C(=O)N([C@H](C)CO)C[C@@H]1C
10,-3[16.7 µM],Cc1noc(C)c1S(=O)(=O)N(C)C[C@H]1Oc2ccc(NC(=O)Cc3ccccc3)cc2CC(=O)N([C@@H](C)CO)C[C@H]1C
7,-19[16.7 µM],C[C@@H]1CN([C@@H](C)CO)C(=O)c2cc(NC(=O)CCN3CCOCC3)ccc2O[C@H]1CN(C)Cc1ccccc1
-9,-3[16.7 µM],C[C@H](CO)N1C[C@H](C)[C@H](CN(C)Cc2ccncc2)Oc2ncc(C3=CCCCC3)cc2C1=O

The listing, from the start:
Yeast UUG start,Env fusion inh,smiles
-22,17[16.7 µM],C[C@H]1CN([C@@H](C)CO)C(=O)c2cc(-c3cccc(F)c3)cnc2O[C@@H]1CN(C)Cc1ccncc1
52,49[16.7 µM],CC(=O)N(C)C[C@@H]1Oc2cc(C#CC3CCCCC3)ccc2S(=O)(=O)N([C@@H](C)CO)C[C@@H]1C
3,10[16.7 µM],CNC[C@H]1Oc2c(NC(=O)NC3CCCCC3)cccc2C(=O)N([C@H](C)CO)C[C@@H]1C
10,-3[16.7 µM],Cc1noc(C)c1S(=O)(=O)N(C)C[C@H]1Oc2ccc(NC(=O)Cc3ccccc3)cc2CC(=O)N([C@@H](C)CO)C[C@H]1C
7,-19[16.7 µM],C[C@@H]1CN([C@@H](C)CO)C(=O)c2cc(NC(=O)CCN3CCOCC3)ccc2O[C@H]1CN(C)Cc1ccccc1
-9,-3[16.7 µM],C[C@H](CO)N1C[C@H](C)[C@H](CN(C)Cc2ccncc2)Oc2ncc(C3=CCCCC3)cc2C1=O
36,44[16.7 µM],C[C@@H]1CCCCO[C@H](CN(C)S(=O)(=O)c2ccc(Cl)cc2)[C@H](C)CN([C@H](C)CO)C(=O)c2cc(NS(=O)(=O)c3ccccc3)ccc2O1
18,-21[16.7 µM],Cc1ccc(S(=O)(=O)Nc2ccc3c(c2)C(=O)N([C@@H](C)CO)C[C@H](C)[C@H](CN(C)Cc2ccc4c(c2)OCO4)OCCCC[C@H](C)O3)cc1
11,-30[16.7 µM],C[C@@H]1CN([C@@H](C)CO)C(=O)Cc2cc(NC(=O)c3ccncc3)ccc2O[C@H]1CN(C)S(C)(=O)=O
-12,-4[16.7 µM],Cc1ccc(S(=O)(=O)NCC[C@@H]2CC[C@@H](NC(=O)NC(C)C)[C@@H](CO)O2)cc1
8,-7[16.7 µM],CN(C)CCCCNC(=O)[C@@H]1C[C@@H]2C(=O)NCC(=O)N2[C@@H]1c1ccc(O)cc1
-1,-5[16.7 µM],Cc1ccc(S(=O)(=O)Nc2ccc3c(c2)CC(=O)N([C@@H](C)CO)C[C@H](C)[C@H](CN(C)C(=O)Nc2ccc4c(c2)OCO4)O3)cc1
10,1[16.7 µM],O=C(C[C@@H]1C[C@H]2c3cc(NC(=O)C4CCC4)ccc3O[C@H]2[C@H](CO)O1)NCc1ccc(-c2ccccc2)cc1
-17,-6[16.7 µM],C[C@H](NC(=O)C[C@H]1CC[C@H]2[C@@H](COC[C@@H](O)CN2C)O1)c1ccccc1
-15,7[16.7 µM],Cc1noc(C)c1S(=O)(=O)Nc1ccc2c(c1)CC(=O)N([C@H](C)CO)C[C@H](C)[C@H](CN(C)Cc1ccccc1)O2
2,-11[16.7 µM],COc1ccc(S(=O)(=O)N(C)C[C@@H]2Oc3ccc(NC(=O)Cn4cnnn4)cc3C(=O)N([C@@H](C)CO)C[C@@H]2C)cc1
7,-3[16.7 µM],Cc1ccc(S(=O)(=O)Nc2ccc3c(c2)C(=O)N([C@@H](C)CO)C[C@H](C)[C@@H](CN(C)C(=O)c2ccncc2)OCCCC[C@@H](C)O3)cc1
12,1[16.7 µM],COc1ccc(S(=O)(=O)Nc2ccc3c(c2)C(=O)N([C@H](C)CO)C[C@@H](C)[C@@H](CN(C)Cc2ccc(-c4ccccc4)cc2)O3)cc1
-7,-8[16.7 µM],O=C(N[C@@H]1CC[C@H](CCn2cc(C3(O)CCCC3)nn2)O[C@H]1CO)C1CCOCC1
10,-24[16.7 µM],C=CCNC(=O)[C@H]1[C@@H]2C(=O)O[C@@H](c3ccccc3)[C@@H](c3ccccc3)N2[C@@H](c2ccc(OCCO)cc2)[C@]12C(=O)Nc1ccccc12
9,-18[16.7 µM],C[C@H](CO)N1C[C@H](C)[C@@H](CN(C)S(=O)(=O)c2ccc(F)cc2)OCCCC[C@H](C)Oc2ccc(NC(=O)Cc3ccccc3)cc2C1=O
14,9[16.7 µM],C[C@H](CO)N1C[C@H](C)[C@H](CN(C)C(=O)NC2CCCCC2)OCCCC[C@H](C)Oc2ccc(NC(=O)c3ccccc3)cc2C1=O
9,-23[16.7 µM],COc1ccc(S(=O)(=O)N(C)C[C@H]2OCCCC[C@@H](C)Oc3ccc(NS(=O)(=O)c4cccs4)cc3C(=O)N([C@H](C)CO)C[C@@H]2C)cc1
-6,-25[16.7 µM],C[C@H](NC(=O)C[C@H]1CC[C@@H]2[C@H](COC[C@@H](O)CN2Cc2cc(F)ccc2F)O1)c1ccccc1
21,9[16.7 µM],C[C@H](CO)N1C[C@H](C)[C@H](CN(C)S(=O)(=O)c2cn(C)cn2)OCCCC[C@H](C)Oc2ccc(NS(=O)(=O)c3cn(C)cn3)cc2C1=O
-26,4[16.7 µM],COc1ccc(NC(=O)N[C@H]2CC[C@@H](CCn3cc(-c4ccc(F)cc4)nn3)O[C@@H]2CO)cc1
9,-12[16.7 µM],C[C@@H]1CN([C@@H](C)CO)C(=O)c2cc(/C=C/c3ccccc3)cnc2O[C@H]1CN(C)C(=O)Nc1ccc(C(F)(F)F)cc1
-3,-21[16.7 µM],Cn1cnc(S(=O)(=O)N[C@@H]2CC[C@@H](CC(=O)NCC3CC3)O[C@@H]2CO)c1
-13,-22[16.7 µM],C[C@@H]1CN([C@@H](C)CO)C(=O)c2cc(Br)cnc2O[C@H]1CN(C)Cc1ccncc1
37,-18[16.7 µM],C[C@H]1CCCCO[C@H](CN(C)C(=O)CCC(F)(F)F)[C@@H](C)CN([C@@H](C)CO)C(=O)c2cc(NC(=O)C3CCCCC3)ccc2O1
11,-16[16.7 µM],C[C@H](CO)N1C[C@H](C)[C@H](CN(C)C(=O)Nc2cccc3ccccc23)OCCCC[C@H](C)Oc2ccc(NC(=O)NC3CCCCC3)cc2C1=O
-2,-22[16.7 µM],Cc1noc(C)c1NC(=O)Nc1cccc2c1O[C@@H](CN(C)C(=O)Nc1cccc3ccccc13)[C@@H](C)CN([C@@H](C)CO)C2=O
11,9[16.7 µM],N#C[C@@H]1[C@H](c2ccc(C3=CCCC3)cc2)[C@@H](CO)N1C(=O)c1cccc(F)c1
0,0[16.7 µM],C[C@@H]1CN([C@@H](C)CO)C(=O)Cc2cc(NS(=O)(=O)c3cccs3)ccc2O[C@H]1CN(C)Cc1ccncc1
1,-9[16.7 µM],COc1ccc(C2=NOC(C(=O)NO)C2)cc1OC1CCCC1 (stereo not given)
7,2[16.7 µM],COc1cccc(-c2ccc([C@@H]3[C@@H](C#N)N(C(=O)c4ccccn4)[C@@H]3CO)cc2)c1
-12,-10[16.7 µM],CCCC#Cc1ccc2c(c1)O[C@@H](CN(C)C(=O)Nc1ccc(OC)cc1)[C@@H](C)CN([C@H](C)CO)S2(=O)=O
-3,-6[16.7 µM],C[C@@H]1CN([C@@H](C)CO)C(=O)c2cccc(NC(=O)c3ccc(-c4nccs4)cc3)c2O[C@@H]1CN(C)S(C)(=O)=O
2,4[16.7 µM],COC(=O)C[C@@H]1C[C@H]2c3cc(NC(=O)NC4CCCCC4)ccc3O[C@H]2[C@H](CO)O1
23,8[16.7 µM],C[C@@H]1CN([C@@H](C)CO)C(=O)Cc2cc(NC(=O)C3CC3)ccc2O[C@H]1CN(C)C(=O)Nc1ccc2c(c1)OCO2
-2,-2[16.7 µM],CNC(=O)C[C@H]1CC[C@@H]2[C@H](COc3ccc(NC(=O)c4ccc(C(F)(F)F)cc4)cc3C(=O)N2C)O1
8,-11[16.7 µM],C[C@H](CO)N1C[C@H](C)[C@H](CN(C)Cc2ccccc2)OCCCC[C@H](C)Oc2ccc(NC(=O)Cc3ccccc3)cc2C1=O
-5,-6[16.7 µM],CNC[C@H]1Oc2ccc(NS(=O)(=O)c3cccs3)cc2CC(=O)N([C@@H](C)CO)C[C@H]1C
-1,13[16.7 µM],C[C@H](CO)N1C[C@H](C)[C@@H](CN(C)CC2CCCC2)Oc2cc(C3=CCCC3)ccc2S1(=O)=O
15,1[16.7 µM],CC(C)C#Cc1cnc2c(c1)C(=O)N([C@@H](C)CO)C[C@H](C)[C@@H](CN(C)C(=O)Nc1ccc(F)cc1)O2
-16,-14[16.7 µM],C[C@@H]1CN([C@@H](C)CO)C(=O)c2cc(NS(=O)(=O)c3ccc(Cl)cc3)ccc2O[C@H]1CN(C)CC1CC1
-11,-4[16.7 µM],C[C@H](CO)N1C[C@H](C)[C@H](CN(C)Cc2ccncc2)Oc2ncc(C#Cc3cccnc3)cc2C1=O
3,0[16.7 µM],C[C@H]1CN([C@@H](C)CO)C(=O)Cc2cc(NC(=O)NC3CCCCC3)ccc2O[C@@H]1CN(C)Cc1ccc(C(F)(F)F)cc1
34,-24[16.7 µM],C[C@H](O)C#Cc1ccc2c(c1)O[C@H](CN(C)C(=O)Nc1ccccc1)[C@@H](C)CN([C@H](C)CO)S2(=O)=O
-8,2[16.7 µM],COCC(=O)Nc1ccc2c(c1)OC[C@H](C)NC[C@H](C)[C@H](OC)CN(C)C2=O
4,-2[16.7 µM],C[C@H]1CN([C@@H](C)CO)C(=O)Cc2cc(NS(=O)(=O)c3ccc(F)cc3)ccc2O[C@H]1CN(C)S(=O)(=O)c1ccc(Cl)cc1
-2,16[16.7 µM],C[C@H]1CN([C@@H](C)CO)C(=O)c2cccc(NC(=O)Nc3ccccc3)c2O[C@H]1CN(C)Cc1ccc(Oc2ccccc2)cc1
-5,10[16.7 µM],CN(C)CC(=O)N[C@@H]1C=C[C@@H](CC(=O)NCc2ccc(Cl)cc2)O[C@@H]1CO
0,46[16.7 µM],C[C@@H]1CN([C@@H](C)CO)S(=O)(=O)c2ccc(-c3ccncc3)cc2O[C@H]1CN(C)Cc1ccc(Oc2ccccc2)cc1
-15,-8[16.7 µM],CN(C)C(=O)c1ccc(-c2ccc([C@H]3[C@@H](C#N)N(C(=O)C4CC4)[C@@H]3CO)cc2)cc1
1,-6[16.7 µM],CO[C@H]1CN(C)C(=O)c2cc(NC(=O)c3cnccn3)ccc2OC[C@H](C)N(C(=O)C2CC2)C[C@@H]1C
-12,4[16.7 µM],COc1ccc(-c2ccc3c(c2)O[C@@H](CN(C)C)[C@H](C)CN([C@@H](C)CO)S3(=O)=O)cc1
-2,4[16.7 µM],CCC(=O)Nc1ccc2c(c1)C(=O)N(C)[C@H]1CC[C@H](CC(=O)Nc3ccc(OC)cc3)O[C@@H]1CO2
-4,16[16.7 µM],C[C@H](CO)N1C[C@H](C)[C@H](CN(C)C)Oc2ccc(NC(=O)C3CCCCC3)cc2CC1=O
9,10[16.7 µM],C[C@@H]1CN([C@H](C)CO)C(=O)Cc2cc(NC(=O)C3CCCCC3)ccc2O[C@H]1CN(C)Cc1ccc(Cl)c(Cl)c1

The list goes on.
Yeast UUG start,Env fusion inh,smiles
0,22[16.7 µM],COCC#Cc1ccc2c(c1)O[C@@H](CN(C)S(=O)(=O)c1cccc(OC)c1)[C@@H](C)CN([C@@H](C)CO)S2(=O)=O
8,3[16.7 µM],COc1ccc(NC(=O)N(C)C[C@@H]2OCCCC[C@H](C)Oc3ccc(NC(=O)Nc4ccc(F)cc4)cc3C(=O)N([C@H](C)CO)C[C@@H]2C)cc1
10,-36[16.7 µM],C[C@H](CO)N1C[C@H](C)[C@H](CN(C)Cc2ccncc2)OCCCC[C@H](C)Oc2ccc(NC(=O)Cc3ccccc3)cc2C1=O
-10,42[16.7 µM],C[C@@H]1CN([C@H](C)CO)C(=O)c2cc(NC(=O)Nc3ccccc3)ccc2O[C@@H](C)CCCCO[C@H]1CN(C)S(=O)(=O)c1ccc(Cl)cc1
-12,18[16.7 µM],Cc1ccc(S(=O)(=O)N[C@H]2C=C[C@H](CC(=O)NCCCN(C)C)O[C@H]2CO)cc1
4,1[16.7 µM],C[C@H](CO)N1C[C@H](C)[C@@H](CN(C)Cc2ccc(Cl)c(Cl)c2)Oc2ccc(NC(=O)Cc3cn(C)c4ccccc34)cc2CC1=O
-20,-2[16.7 µM],COCC(=O)Nc1ccc2c(c1)C(=O)N(C)C[C@H](OC)[C@H](C)CN(C)[C@@H](C)CO2
10,-12[16.7 µM],C[C@@H]1CN([C@@H](C)CO)S(=O)(=O)c2ccc(C3=CCCCC3)cc2O[C@H]1CN(C)C(=O)c1ccccc1
2,-10[16.7 µM],CCCNC(=O)C[C@@H]1CC[C@@H]2[C@H](COc3ccc(NC(=O)C4CCOCC4)cc3C(=O)N2C)O1
14,6[16.7 µM],Cc1noc(C)c1S(=O)(=O)Nc1ccc2c(c1)C(=O)N([C@H](C)CO)C[C@H](C)[C@H](CN(C)C(=O)CCC(F)(F)F)OCCCC[C@H](C)O2
